# Source: PubChem (National Center for Advancing Translational Sciences (NCATS))
# VACV Venus inh: vaccinia inhibition (Venus reporter); Vaccinia virus Venus reporter expression, fluorescence; Potency, µM (titrated, usually from 36.5 µM), for inactives: at the highest dose activity change, negative = inhibition, actives largely listed as inhibitors; actives 0.46% (n = 330,000); active means well fitted inhibition curve with a large enough effect; inconclusive means small, poorly fitted or top-dose-only effect; inactive means no such curve, though single readings can be large or run the other way; tested in A549 cells; note: nearly all actives have a fitted effect of over 30% in size; inactives centre near -10
# VACV mCherry inh: vaccinia inhibition (mCherry reporter). Vaccinia virus mCherry reporter infection, fluorescence; about a quarter of the inactives have no number. Potency, µM (series often up to 36.5 µM), for the others: at the highest dose activity change, negative = inhibition, actives largely listed as inhibitors. actives 0.63% (n = 310,000). AID 720579; active = well fitted inhibition curve with a large enough effect; inconclusive = small, poorly fitted or top-dose-only effect; inactive = no such curve, though single readings can be large or run the other way; tested in A549 cells; note: nearly all actives have a fitted effect of over 35% in size; inactives centre near -10
# * = called active by the depositor; i = inactive; ? = inconclusive; / = no result given; & = joins results of further samples; [ ] = remark or other dose. % is set by controls: 0 for no effect and ±100 for the full control effect; potency is the fitted concentration of half-maximal effect.
no.	compound	VACV Venus inh	VACV mCherry inh
1	Cc1ccc(N2CC(NS(=O)(=O)c3cccs3)CC2=O)cc1 (stereo not given)	-8%	i
2	CCN(CC)CCN1C(=O)C(=O)/C(=C(/O)c2ccncc2)C1c1ccccc1F (stereo not given)	-9%	/
3	COC(=O)c1ccccc1NC(=O)c1sc(N)nc1C	0%	/
4	O=C(CSc1nnc(Nc2ccccc2)s1)NC1CCCC1	-10%	-17%
5	Cc1ccc(C(=O)C(C)OC(=O)c2n[nH]c(=O)c3ccccc23)cc1 (stereo not given)	-7%	/
6	O=C(NCCN1CCCCCC1)c1ccc(N2CCCC2=O)cc1	-5%	-19%
7	COP(=O)(OC)c1nc(-c2cccc3ccccc23)oc1NCCc1ccccc1	-23%	-17%
8	O=C(c1ccccc1)c1c2c(cc3sc4ccccc4[n+]13)-c1cccc3cccc-2c13	256%[activator]	171%[activator]
9	CC1CCCCN1S(=O)(=O)c1ccc(C(=O)Nc2sc3c(c2C(N)=O)CC(C)(C)NC3(C)C)cc1 (stereo not given)	-17%	-17%
10	O=C(NCc1nnnn1-c1ccc(Cl)cc1)C1CC(=O)N(c2ccc(F)cc2)C1 (stereo not given)	-15%	8%
11	CC1=C(C(=O)OC2CCCCCC2)C(c2ccc(Cl)cc2)CC(=O)N1 (stereo not given)	-13%	-3%
12	CCN(CC)S(=O)(=O)c1ccc2c(c1)nc(CN(C)C(=O)Nc1ccc(C)c(Cl)c1)n2C	-19%	-23%
13	CN(NC(=O)NN(C)C(=O)c1ccccc1)C(=O)c1ccccc1	-6%	i
14	CC(=O)N/N=C(\C)CC(=O)NC(C)(C)C	-8%	-17%
15	Cc1cc(C)c(-c2n[nH]c3c2C(c2ccccc2F)N(CCO)C3=O)c(O)c1 (stereo not given)	-16%	-15%
16	Nc1ccc(C23CC4CC(CC(C4)C2)C3)cc1	-17%	i
17	CCCCOc1ccc(CNC(=O)Cc2ccc(NC(=O)N3CCCCc4ccccc43)cc2)cc1	-21%	-17%
18	O=C(CCCC(=O)NCCc1ccccc1)NCCc1ccccc1	-4%	-7%
19	Cc1c[n+](CC(=O)c2ccccc2)cs1	-18%	-16%
20	COc1ccccc1CNCc1cc(Br)ccc1OC	-15%	-25%
21	COc1ccc(N2CC(NC(=O)c3ccc(S(=O)(=O)N4CCOCC4)cc3)CC2=O)cc1OC (stereo not given)	-2%	-4%
22	CC(=O)OC(C(=O)Nc1ccccc1)C(C)S(=O)(=O)c1ccccc1 (stereo not given)	?	/
23	CCN(CC)S(=O)(=O)c1cc(NC(=O)[C@@H](NC(N)=O)C(C)C)ccc1C	-12%	-8%
24	CCCCN(CCCC)CCn1cnc2c([nH]c3ccc(OC)cc32)c1=O	8%&3%	-1%&-1%
25	Cc1cccc(C)c1NC(=O)C1(C)CSCC(=O)N1Cc1ccco1 (stereo not given)	12%	i
26	COc1ccc(SC[C@H](C)CN2CC[C@H](O)CCC2=O)cc1	-13%	-7%
27	NC(=O)Cn1c(=O)n(CCCCCC(=O)NCc2ccccc2Cl)c(=O)c2sccc21	-8%	-10%
28	Cc1ccc(NC(=O)C2CCN(c3nnc(-n4cccc4)s3)CC2)cc1Cl	-6%	2%
29	CC(=O)c1cc(-c2ccc(F)cc2)n(CC(=O)Nc2cc(C)cc(C)c2)c1C	-13%	-8%
30	COc1ccccc1N1CCN(C(=O)CCCCCn2c(=O)[nH]c3ccsc3c2=O)CC1	9%	-13%
31	CCOc1ccccc1NC(=O)CN(c1cc(C)cc(C)c1)S(=O)(=O)c1c(C)nn(C)c1C	-13%	-22%
32	CCN1CCc2c(sc(NC(=O)c3ccc(S(=O)(=O)N4CCCCCC4)cc3)c2C(=O)NC)C1	-15%	-24%
33	O=C(Nc1cccc(Cl)c1N1CCCCC1)c1ccc(N2CCOCC2)c([N+](=O)[O-])c1	-22%	i
34	CN(C)/C=C(\C#N)C(=O)N/N=C/c1ccc(F)cc1	8%	i
35	O=C1CCCCC1Nc1ccc(Br)cc1 (stereo not given)	-22%	-27%
36	CCCC(=O)N/C(N)=N/c1nc(C)c2cc(C)ccc2n1	?	2.2µM*
37	O=C(Nc1ccccc1)N1CCN(Cc2ccccc2)CC1	-1%	-6%
38	O=C1N[C@@H](Cc2ccccc2)C(=O)N2CCCC12 (stereo not given in full)	-10%	i
39	O=C1NC(=O)C(=Cc2ccccc2)N1	2%	-10%
40	COc1ccc(C(C#N)N2CCCCC2)cc1OC (stereo not given)	-2%	-9%
41	COc1cccc(/C=C2/NC(=O)N(CC(=O)Nc3ccc(C)cc3)C2=O)c1OCc1cccc(C(=O)O)c1	-12%	i
42	CCN(CC(=O)NCc1ccc(Cl)cc1)C(=O)C1CCN(S(=O)(=O)c2ccc(OC)c(OC)c2)CC1	-20%	-2%
43	CCOC(=O)c1ccc(NC(c2ccc(N(C)C)cc2)P(=O)(OC(C)C)OC(C)C)cc1 (stereo not given)	-8%	?
44	O=[N+]([O-])c1ccccc1Oc1ccc(C(F)(F)F)cn1	-8%	-8%
45	Cc1ccc2nc(SCC(=O)Nc3nonc3N)[nH]c2c1	-9%	i
46	Cc1cccc(C)c1-n1nnnc1C(c1cccs1)N1CCC(n2c(=O)[nH]c3ccccc32)CC1 (stereo not given)	-17%	10%
47	O=S(=O)(O)c1ccc(N=Nc2ccccc2)cc1	-17%	i
48	COc1ccc(/C=C/C(=O)NC(=S)Nc2ccc(C(=O)O)cc2)cc1	-4%	i
49	CC(=O)c1ccc(NC(=O)C2CCC(CNS(=O)(=O)c3ccc4c(c3)CCCC(=O)N4)CC2)cc1 (stereo not given)	-6%	-9%
50	CCc1ccc(C2C(C(=O)Nc3ccccc3OC)=C(C)Nc3nc(SCc4ccccc4)nn32)cc1 (stereo not given)	?	?
51	COc1cc(NS(=O)(=O)c2ccc(N/C=C(\C#N)c3nc4ccccc4o3)cc2)nc(OC)n1	-7%	-2%
52	COc1ccc(/C=N/NC(=S)Nc2ccccc2[N+](=O)[O-])cc1O	?	-22%
53	CCCCN(C(=O)c1cc(S(=O)(=O)N2CCOCC2)ccc1Cl)c1c(N)n(CC(C)C)c(=O)[nH]c1=O	-19%	-2%
54	C=CCC(NCc1ccccc1)c1ccc(OC)cc1 (stereo not given)	-11%	-27%
55	CN(C(=O)c1ccccc1)c1nc2ccccc2s1	-25%	/
56	CN1CCN(C(=O)/C=C/c2ccc(Cl)cc2)CC1	6%	1%

# Of the compounds above, these contain a COOH group.
no.	compound	VACV Venus inh	VACV mCherry inh
41	COc1cccc(/C=C2/NC(=O)N(CC(=O)Nc3ccc(C)cc3)C2=O)c1OCc1cccc(C(=O)O)c1	-12%	i
48	COc1ccc(/C=C/C(=O)NC(=S)Nc2ccc(C(=O)O)cc2)cc1	-4%	i

# Further structures
no.	compound	VACV Venus inh	VACV mCherry inh
57	Oc1[nH]c2ccccc2c1N=Nc1nncc2ccccc12	-15%	-15%
58	Cc1cc(C(=O)CSc2nnnn2C)c(C)n1CCc1ccc(Cl)cc1	-5%	-12%
59	Cc1cc(C(=O)NNC(=O)/C=C/c2ccc(F)cc2)c(C)o1	-13%	i
60	CCc1nc2ccc(C(=O)N(C)C(C)C)cn2c1N(CC)Cc1cccc(Br)c1	-9%	i
61	CCOc1ccc(C(=O)Nc2ccc(NC(=S)NC(=O)CC)cc2)cc1Cl	-13%	-12%
62	Cc1n[nH]c(C)c1S(=O)(=O)N1CCCC(C(=O)NCc2ccccc2Cl)C1 (stereo not given)	-9%	-6%
63	Nc1nonc1-c1nc2ccccc2n1CC(=O)NC1CCCC1	3%	-4%
64	CCOC(=O)c1sc(NC(=S)NC(=O)c2ccccc2)c(C(=O)OCC)c1C	-3%	-14%

# Part of the list above in order of SMILES length, lowest first.
no.	compound	VACV Venus inh	VACV mCherry inh
18	O=C(CCCC(=O)NCCc1ccccc1)NCCc1ccccc1	-4%	-7%
63	Nc1nonc1-c1nc2ccccc2n1CC(=O)NC1CCCC1	3%	-4%
23	CCN(CC)S(=O)(=O)c1cc(NC(=O)[C@@H](NC(N)=O)C(C)C)ccc1C	-12%	-8%

# Remaining list, next part
no.	compound	VACV Venus inh	VACV mCherry inh
65	CC(C)(C)OC(=O)N1CCC(NC(=O)c2[nH]cnc2C(=O)Nc2cccc(Cl)c2)CC1	?	-19%
66	CCN1CCN(c2ncnc3scc(-c4ccc(C)c(C)c4)c23)CC1	-3%	-6%
67	CCOC(=O)C1(Cc2ccccc2)CCN(Cc2cc(OC)c3c(c2)OCO3)CC1	-20%	-15%
68	CCOc1ccc(S(=O)(=O)Nc2ccccc2C(=O)Nc2ccccc2N2CCOCC2)cc1	-8%	i
69	O=C(CSc1ccc2nnc(-c3ccccc3)n2n1)NCc1ccc2c(c1)OCO2	-4%	0%
70	COc1ccc(-n2ncc3c(NC(C)C)ncnc32)cc1	-17%	/
71	CCCC[n+]1c2ccccc2cc2ccccc21	?	-10%
72	CCSCCOC(=O)C1=C(C)N(C)C(=O)NC1c1cc(OC)ccc1OC (stereo not given)	-16%	/
73	COC(=O)C1=C(C(=O)OC)[C@@H]2N(Cc3ccccc3)c3ccccc3[C@@]23C[C@@H](C(=O)OC)N(C(=O)NC2CCCCC2)C3=N1	-5%	?
74	COc1cc(C(=O)OCC(=O)N2CCN(C(C)=O)CC2)ccc1OCC(C)C	-7%	-14%
75	NC(=O)N1c2ccccc2C=Cc2ccccc21	-10%&-18%&-9%	0%&-1%&-15%
76	COc1ccc2c(c1)C(=O)N(CCc1ccc(S(=O)(=O)NC(=O)NC3CCCCC3)cc1)C(=O)C2(C)C	-8%	i
77	CCCCn1c(N)c(N(CCC(C)C)C(=O)c2cccc(N3C(=O)c4ccccc4C3=O)c2)c(=O)[nH]c1=O	-7%	i
78	CCc1ccc2oc(C(=O)NCC(c3ccc(Cl)cc3)N3CCOCC3)c(C)c2c1 (stereo not given)	-9%	-7%
79	CC(Nc1ccc(Br)cc1)C(=O)Nc1cccc(S(=O)(=O)N2CCOCC2)c1 (stereo not given)	-9%	-16%
80	COCc1c(C(=O)NC(C)c2ccc(S(N)(=O)=O)cc2)oc2ccccc12 (stereo not given)	-6%	-7%
81	COc1ccc(OC)c(/C=C/C(=O)N(C)CC(=O)Nc2ccc(C)cc2)c1	-25%	-28%
82	CC/C(C)=N/N1C(=O)c2ccccc2NC1(C)CC (stereo not given)	9%	-8%
83	COc1ccc(C(=O)Nc2ccc(Cc3ccncc3)cc2)cc1Br	-11%	i
84	COc1cc(C(=O)N/N=C/c2ccc(OC(=O)c3ccccc3)c(OC)c2)ccc1O	-14%	-11%
85	C[C@@H]1CN([C@@H](C)CO)C(=O)CCCn2nncc2CO[C@H]1CN(C)S(=O)(=O)c1ccccc1C#N	-5%	-1%
86	CC(C)(C)OC(=O)NCc1ccc(CNC(=O)c2nc[nH]c2C(=O)NCc2ccccc2)cc1	-29%	-3%
87	Nc1c(N(CCC2=CCCCC2)C(=O)Cc2ccc(F)cc2)c(=O)[nH]c(=O)n1Cc1ccccc1	-15%	-25%
88	O=C(CCCCCCCCN1C(=O)c2ccccc2C1=O)N1CCOCC1	-3%	i
89	CC1CCN(CC(O)COCCOc2ccc(Br)cc2)CC1 (stereo not given)	-12%	-14%
90	Cn1c(N)c(Br)c(-c2ccc(F)cc2)c(C#N)c1=O	-17%	-14%
91	CN(c1nnc(N)s1)C1CCCCC1	-8%	-6%
92	CCC(C(=O)OCC(=O)Nc1ccc(C(N)=O)cc1)c1ccccc1 (stereo not given)	-9%	-5%
93	c1ccc(CC(NCc2ccco2)c2ccccc2)cc1 (stereo not given)	-6%	-3%
94	Cc1nn(C(C)(C)C)c(OC(=O)c2cccs2)c1S(=O)(=O)c1ccccc1	?	?
95	COc1ccc(OC)c(-c2cc(C(=O)NCCN3CCOCC3)no2)c1	-3%	-12%
96	C[C@@H]1CCC[C@@]2(O[C@H](CCO)C[C@H](O)[C@H]2O)O1	-12%	i

# Retrieved by structure from above:
no.	compound	VACV Venus inh	VACV mCherry inh
94	Cc1nn(C(C)(C)C)c(OC(=O)c2cccs2)c1S(=O)(=O)c1ccccc1	?	?
39	O=C1NC(=O)C(=Cc2ccccc2)N1	2%	-10%
89	CC1CCN(CC(O)COCCOc2ccc(Br)cc2)CC1 (stereo not given)	-12%	-14%
47	O=S(=O)(O)c1ccc(N=Nc2ccccc2)cc1	-17%	i

# Other entries follow:
no.	compound	VACV Venus inh	VACV mCherry inh
97	COc1ccc(CCNC(=O)C2CCCN2S(=O)(=O)c2ccc(F)cc2)cc1OC (stereo not given)	-12%	-6%
98	CCOCCCN1C(=O)C2C(C(=O)Nc3ccc(OCC)cc3)C3C=CC2(O3)C1C(=O)NC1CCCCC1 (stereo not given)	-11%	-20%
99	COc1ccc(OC)c(/C=C/C(=O)OCC(=O)Nc2ccc3c(c2)OCCO3)c1	-21%	-26%
100	CC(=O)N1CCc2cc(S(=O)(=O)NC(Cc3ccccc3)C(=O)Nc3ccc(C)cc3C)ccc21 (stereo not given)	-9%	0%
101	COc1ccc(OC)c(-n2c(-c3cc(-c4ccc(F)cc4)n[nH]3)n[nH]c2=S)c1	-12%	?
102	COc1nc(N)nc(NC23CC4CC(CC(C4)C2)C3)n1	-16%	-19%
103	CC(=O)c1cc(C)c(OC(=O)c2ccccc2)c(C)c1	-23%	-8%
104	O=C(CCC(=O)c1ccccc1)NCCc1c[nH]c2ccccc12	-11%	-8%
105	CCN(CC(=O)NC(C)(C)C)Cc1nc2c(Br)cc(Br)cc2c(=O)[nH]1	-11%	-19%

# Compounds were not picked by outcome. About 0.87% of those tested had a hit in this group.
